# Screening data as filed in PubChem.
# KCNQ2 inh = KCNQ2 potassium channel inhibitors, primary screen, cell-based, CHO-K1, FluxOR thallium flux, B-score (AID 2156); Potassium voltage-gated channel subfamily KQT member 2 (Rattus norvegicus), O88943; 20 min; active compounds read low; only compounds with negative scores are shown here; some inactives read as strong as hits; B-score at 10 µM; 310,000 tested, 1.1% active;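 active = fluorescence ratio B-score at most minus 3 library SDs, with starting brightness B-score within 2 library SDs, cut at about -5.5 in these data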
# Target sequence (O88943 whole entry, looked up): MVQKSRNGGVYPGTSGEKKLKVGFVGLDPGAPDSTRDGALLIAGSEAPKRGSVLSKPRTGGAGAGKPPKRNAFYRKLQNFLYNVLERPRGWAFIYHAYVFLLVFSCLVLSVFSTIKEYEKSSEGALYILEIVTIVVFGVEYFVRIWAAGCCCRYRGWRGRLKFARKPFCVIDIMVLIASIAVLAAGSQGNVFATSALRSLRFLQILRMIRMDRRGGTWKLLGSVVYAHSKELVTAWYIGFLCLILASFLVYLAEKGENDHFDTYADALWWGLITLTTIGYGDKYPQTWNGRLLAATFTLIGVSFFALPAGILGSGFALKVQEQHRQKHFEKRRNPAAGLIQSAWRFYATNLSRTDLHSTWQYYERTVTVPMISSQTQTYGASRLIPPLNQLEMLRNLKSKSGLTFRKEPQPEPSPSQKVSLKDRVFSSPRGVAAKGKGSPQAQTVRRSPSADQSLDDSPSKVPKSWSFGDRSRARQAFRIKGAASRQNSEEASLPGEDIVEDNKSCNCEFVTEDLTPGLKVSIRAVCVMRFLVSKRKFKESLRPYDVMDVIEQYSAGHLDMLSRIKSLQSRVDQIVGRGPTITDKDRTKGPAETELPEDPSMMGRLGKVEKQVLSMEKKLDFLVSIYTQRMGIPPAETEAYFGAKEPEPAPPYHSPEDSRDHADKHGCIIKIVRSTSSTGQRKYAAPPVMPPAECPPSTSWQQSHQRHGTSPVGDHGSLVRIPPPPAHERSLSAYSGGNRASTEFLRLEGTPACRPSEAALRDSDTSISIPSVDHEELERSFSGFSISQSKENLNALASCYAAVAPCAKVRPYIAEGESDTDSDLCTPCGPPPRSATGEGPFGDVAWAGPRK
# KCNQ2 inh baseline = second read-out of KCNQ2 inh, no call of its own (marks repeat the call); B-score; measured here: initial fluorescence intensity artifact check;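 brightness before thallium and not channel activity; 0 = typical well and far values either way flag optical interference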
# Starred values were filed as active, the others as inactive; i = inactive. The list is partial, so the mix of outcomes need not match the whole.
KCNQ2 inh baseline | KCNQ2 inh | Molecule
0.18 | i | CC(=O)c1cccc(NC(=O)C2CCN(S(=O)(=O)c3ccc(F)cc3)CC2)c1
1 | i | Nc1nc(-c2ccc3c(c2)CCCC3)c(CC(=O)O)s1
1 | i | COc1ccc2oc(=O)cc(-c3cc4ccccc4o3)c2c1
-2 | i | COc1ccc(C2=[N+]([O-])C(C)(C)N(O)C2(C)C)cc1
0.56 | i | CCN(CC)C(=O)c1cc([N+](=O)[O-])cc2c1-c1ccc([N+](=O)[O-])cc1C2=C(C#N)C#N
-1.1 | i | CCNC(=S)N1CCN(C(=O)c2ccco2)CC1
-1.5 | i | CCc1ccc(NC2Nc3cc(C)nn3S2)cc1 (stereo not drawn)
-0.06 | i | COc1ccc(NC(=O)C2C3CC/C=C\CCC32)cc1 (stereo not drawn)
0.09 | i | CCOC(=O)c1c(C)[nH]c(C(=O)COC(=O)C2(C)CC2(Cl)Cl)c1C (stereo not drawn)
1.3 | i | O=C(CSc1nc2ccccc2s1)Nc1cc(S(=O)(=O)N2CCOCC2)ccc1Cl
2 | i | CCOC(=O)CCSc1nc2c(c(C(F)(F)F)c1C#N)CCC2
-1.9 | i | CN(Cc1ccon1)Cc1cn(Cc2ccccc2)nc1-c1ccc2c(c1)OCO2
-0.14 | i | CC1(C)Cc2nc3sc4c(SCC(=O)NCc5ccco5)ncnc4c3cc2CO1
0.56 | i | Cc1cccc(N2CCN(C(=S)NCCc3ccccc3)CC2)c1C
-0.07 | i | Cc1ccc(S(=O)(=O)N2CCC(=O)N(C(COCc3ccccc3)Cc3ccccc3)CC2)cc1 (stereo not drawn)
-0.57 | i | CN(Cc1ccc(F)cc1)C(=O)c1cccc(OCc2ccccc2)c1
0.03 | i | COc1ccc(/C(C)=N/Nc2nc(C)cc(-c3ccccc3)n2)cc1
-0.56 | i | COc1ccc2oc(=O)c(-c3csc(Nc4ccc(O)cc4)n3)cc2c1
2.3 | i | COc1ccc(NC(=O)CSc2nnc(-c3cccs3)n2N)c(OC)c1
0.73 | i | Cc1ccc(C(=O)Nc2sc(C(=O)N(C)C)c(C)c2C#N)cc1

# Random excerpt: two entries already listed
KCNQ2 inh baseline | KCNQ2 inh | Molecule
-1.1 | i | CCNC(=S)N1CCN(C(=O)c2ccco2)CC1
-2 | i | COc1ccc(C2=[N+]([O-])C(C)(C)N(O)C2(C)C)cc1

# (continued)
KCNQ2 inh baseline | KCNQ2 inh | Molecule
-1.7 | i | CCCCn1c(N)c(N(CC)C(=O)c2cccc(S(=O)(=O)N3CCN(C)CC3)c2)c(=O)[nH]c1=O
-0.03 | i | Oc1ccc(-c2c(C3=CCCCC3)sc3ccccc23)cc1
0.18 | i | Cn1ccc(C(=O)OCC(=O)Nc2cccc3ccccc23)n1
-0.36 | i | O=C(c1c(F)cccc1F)N1CCCC(c2nc(-c3ccc(F)cc3)no2)C1 (stereo not drawn)
-0.08 | i | COc1ccccc1OCC(O)Cn1nc(C)cc1C (stereo not drawn)
0.26 | i | COc1ccc(CCn2c(C3CCCCC3)nc3c(c(=O)c4ccccc4n3C)c2=O)cc1OC
0.33 | i | C=CCOc1ccc(/C=C2/C(=O)ON=C2C)cc1OC
-0.18 | i | COc1cc(/C=C(/C#N)C(=O)NCCc2c[nH]c3ccccc23)ccc1OCc1ccccc1F
-0.01 | i | CCc1noc(C)c1C(=O)Nc1cccc(S(=O)(=O)N(C)c2ccccc2)c1
-1.6 | i | O=C1CCC2CCCCC2(O)O1 (stereo not drawn)
-0.31 | i | S=C(Nc1ccc(-c2nc3ccccc3[nH]2)cc1)Nc1cccnc1
2.6 | i | C=CCN(CC=C)S(=O)(=O)c1ccc2nc(NC(=O)C3CCCO3)sc2c1 (stereo not drawn)
2.8 | i | O=C1c2ccccc2S(=O)(=O)c2cc(C(=O)N(c3ccccn3)c3ccccn3)ccc21
-0.31 | i | CCCCOC(=O)CSc1nnc(-c2ccc(Cl)cc2Cl)o1
1.6 | i | Cc1ccc(OCc2nc(C#N)c(N3CCCCC3)o2)cc1
0.35 | i | CCOC(=O)NC(Nc1sc2c(c1C(N)=O)CCCC2)(C(=O)OCC)C(F)(F)F (stereo not drawn)
1.3 | i | Cc1cc(-c2n[nH]c(=S)n2Cc2ccccc2)cs1
0.97 | i | COc1ccc(CCNCCN2CCOCC2)cc1
-2.1 | i | CCc1sc(C(=O)NCc2cc(C)n(C)n2)cc1Br
2.6 | i | CSc1nsc(SC)c1C(=O)NCCNS(=O)(=O)c1ccc(C)cc1
1.6 | i | COCCCn1c(SCC(=O)Nc2cccc(C)n2)nnc1-c1ccco1
1.1 | i | COc1ccccc1/C=C/C(=O)Nc1ccc2c(c1)CCC2
-3.4 | i | Cc1ncc(CO)c2cc(C(=O)Nc3ccccc3Cl)c(=Nc3cccc(C(N)=O)c3)oc12
0.41 | i | Cc1ccc(-n2[nH]c(C)c(C=Nc3ccc(S(=O)(=O)Nc4nccs4)cc3)c2=O)cc1C
-0.43 | i | CC(C)N(C(=O)CSc1ncnc2sc(-c3ccccc3)cc12)C(C)C
0.78 | i | CSc1cccc(NC(=S)NC(=O)CCc2ccccc2)c1
1.8 | i | O=C(c1ccc(F)cc1)C1CCN(C(=O)c2ccccc2)CC1
-1.9 | i | Cc1c(C(=O)Nc2ccccc2F)sc2ncn(CC(=O)N3CCCCC3)c(=O)c12
2.2 | i | COc1ccccc1OCCCC(=O)Nc1nnc(C2CCCO2)s1 (stereo not drawn)
0.39 | i | CC(C)C(NC(N)=O)C(=O)NC1CCCCC1 (stereo not drawn)
-0.69 | i | O=C(CCc1ccc(S(=O)(=O)N2CCOCC2)cc1)N/N=C/c1ccc(F)cc1F
-1.4 | i | CCN(CC)C(=O)N1CCC(NC(=O)c2ccc(C(C)(C)C)cc2)CC1
0.01 | i | CC(NC(=O)c1ccc(Cl)cc1)C(=O)NC1=NCCS1 (stereo not drawn)
0.09 | i | CC1CCCN(c2ccc(F)cc2N)C1 (stereo not drawn)
4.4 | i | COCc1cc(C)nc(SCc2ccccc2Cl)c1C#N
-0.65 | i | N[C@H]1C(O)O[C@H](CO)[C@@H](O)[C@@H]1O (stereo partly drawn)
2.7 | i | CCOc1ccccc1OCC(=O)O
-0.42 | i | O=[N+]([O-])c1ccc(N2CCCCCC2)c(S(=O)(=O)N2CCCCC2)c1
-0.33 | i | Cc1cc(Cl)ccc1OCC(=O)NCC(c1cccs1)N1CCOCC1 (stereo not drawn)
-1.2 | i | CCN(C(=O)CSc1nnc2ccccn12)c1c(N)n(Cc2ccccc2)c(=O)[nH]c1=O
0.93 | i | CCO/N=C1\C(=O)N(c2ccccc2)c2ccccc21
2.5 | i | CCNC(=O)CN1c2cccc3cccc(c23)S1(=O)=O
0.61 | i | COc1ccc(OCc2n[nH]c(=S)n2N)cc1
2.2 | i | CCCCNC(=S)NCc1ccc2[nH]c(C)cc2c1
1.7 | i | CC(C)(C)c1nc2ccccc2c2nnc(SCC(=O)Nc3nc4ccccc4s3)n12
-1.1 | i | O=C(O)CCc1ccc(-c2ccc(Cl)cc2)o1
1.8 | i | C=CCNC(=S)NNC(=O)c1csc(C)c1C
-0.64 | i | Cc1cc(NC(=O)c2cc(F)c(F)cc2Cl)no1
-0.12 | i | Cc1cccc2sc(N(CCCN(C)C)C(=O)COc3ccc(Cl)cc3)nc12
-0.11 | i | CCc1cccc(CC)c1NC(=O)c1cccc(NC(=O)c2ccccc2)c1
2.8 | i | Fc1ccc2c(c1)/C(=N/Nc1ccccn1)CCS2
0.17 | i | O=C(COC(=O)c1cc(-c2cccc3ccccc23)nc2ccccc12)NC1CCS(=O)(=O)C1 (stereo not drawn)
0.27 | i | O=C(COC(=O)/C=C/c1cnc2ccccc2n1)NCC(F)(F)F
-0.02 | i | Cc1cc(C)nc(SCc2nnc(SCC(N)=O)n2Cc2ccco2)n1
1.6 | i | CCOC(=O)COc1cc2oc(=O)cc(C)c2cc1[N+](=O)[O-]
1.5 | i | Cc1ccc(C(=O)NCCCN2CCOCC2)c(C)c1
-1.5 | i | OC(CNCCc1ccc(Cl)cc1Cl)COc1ccccc1 (stereo not drawn)
0.03 | i | COc1cc(C(=O)OCC(=O)c2c[nH]c3ccccc23)ccc1OCC(=O)N1CCOCC1
-0.8 | i | Cc1nn(CCCC(=O)NCCc2ccc(Cl)cc2)c(=O)c2nn(-c3ccccc3)c(C)c12
1.1 | i | O=C(Nc1ccncc1)c1ccc(Cl)c(Cl)c1

# A draw from above in order of number of heavy atoms, rising:
KCNQ2 inh baseline | KCNQ2 inh | Molecule
0.61 | i | COc1ccc(OCc2n[nH]c(=S)n2N)cc1
1.6 | i | CCOC(=O)COc1cc2oc(=O)cc(C)c2cc1[N+](=O)[O-]
0.18 | i | Cn1ccc(C(=O)OCC(=O)Nc2cccc3ccccc23)n1
0.27 | i | O=C(COC(=O)/C=C/c1cnc2ccccc2n1)NCC(F)(F)F
0.41 | i | Cc1ccc(-n2[nH]c(C)c(C=Nc3ccc(S(=O)(=O)Nc4nccs4)cc3)c2=O)cc1C
0.03 | i | COc1cc(C(=O)OCC(=O)c2c[nH]c3ccccc23)ccc1OCC(=O)N1CCOCC1

# Carrying on.
KCNQ2 inh baseline | KCNQ2 inh | Molecule
-0.06 | i | COC(=O)c1cc(N=C(N)N=C(N)N)cc(C(=O)OC)c1
-0.93 | i | CCN(Cc1ccccc1)c1ccc(/C=N/NS(=O)(=O)c2ccc(C)c([N+](=O)[O-])c2)cc1
5.3 | i | O=C(NCC(c1cccnc1)N1CCN(c2ccccc2F)CC1)OCc1ccccc1 (stereo not drawn)
-3.6 | i | O=C(NC12CC3CC(CC(C3)C1)C2)c1ccc(-c2ccc(Cl)cc2)o1
2.3 | i | CN(Cc1cccs1)C(=O)Cn1cnc2cc([N+](=O)[O-])ccc2c1=O
-1.1 | i | COc1ccc(NC(=O)c2nn(C)c3c2CS(=O)(=O)c2ccccc2-3)cc1
-0.01 | i | COC(=O)c1cc(NC(=O)C2(S(=O)(=O)c3ccc(Cl)cc3)CC2)cc(C(=O)OC)c1
1.7 | i | O=C(O)c1ccc(COc2ccc3ccccc3c2)o1
0.03 | i | O=C(COC(=O)C1(c2ccc(Cl)cc2)CCCC1)NCc1ccco1
-1.8 | i | Cc1ccc(S(=O)(=O)N2CCN(C(=O)CN3CCc4ccccc4C3)CC2)cc1
-0.4* | -7.9* | COc1cc(/C=C/C(=O)N(Cc2ccccc2)c2ccccn2)cc(OC)c1OC
0.02 | i | COc1ccc(CC(=O)N2CCC(CCC(=O)Nc3ccccc3)CC2)cc1
0.94 | i | Cc1ccc(S(=O)(=O)c2nc(C)oc2N2CCOCC2)cc1
-0.11 | i | O=C(Cc1cccs1)Nc1nnc(SCc2ccc(C(F)(F)F)cc2)s1
-0.42 | i | Cc1cccc(-n2c(-c3cccc([N+](=O)[O-])c3)nc3nc4ccccc4nc32)c1
-0.01 | i | COc1ccccc1Oc1ccc(S(=O)(=O)N2CCCCC2)cc1NC(=O)CCNC(C)=O
0.49 | i | CC(C)CN(C(=O)CCCSc1nc2ccccc2[nH]1)c1c(N)n(Cc2ccccc2)c(=O)[nH]c1=O
0.01 | i | Cc1ccc(S(=O)(=O)NC(C(=O)N2CCOCCOCCOCC2)C(C)C)cc1 (stereo not drawn)
0.96 | i | CN1CCN(c2nc(-c3ccc(Br)cc3)nnc2-c2ccccc2)CC1
0.54 | i | O=[N+]([O-])c1c(NCCO)cc(N2CCCCCC2)c2nonc12

# Filtered by structure, the entries above containing a cyano group
KCNQ2 inh baseline | KCNQ2 inh | Molecule
0.56 | i | CCN(CC)C(=O)c1cc([N+](=O)[O-])cc2c1-c1ccc([N+](=O)[O-])cc1C2=C(C#N)C#N
2 | i | CCOC(=O)CCSc1nc2c(c(C(F)(F)F)c1C#N)CCC2
0.73 | i | Cc1ccc(C(=O)Nc2sc(C(=O)N(C)C)c(C)c2C#N)cc1
-0.18 | i | COc1cc(/C=C(/C#N)C(=O)NCCc2c[nH]c3ccccc23)ccc1OCc1ccccc1F
1.6 | i | Cc1ccc(OCc2nc(C#N)c(N3CCCCC3)o2)cc1
4.4 | i | COCc1cc(C)nc(SCc2ccccc2Cl)c1C#N

# Further entries follow:
KCNQ2 inh baseline | KCNQ2 inh | Molecule
1.4 | i | CC12CN3CC(C)(CN(C1)C3c1ccccc1F)C2 (stereo not drawn)
0.41 | i | O=C(CCCn1c(=O)[nH]c2ccsc2c1=O)NC1CCCCC1
-0.02 | i | COC(=O)c1nn(-c2ccccc2)nc1-c1nn(-c2ccccc2)nc1C(=O)OC
0.35 | i | Cc1ccc(NC(=O)CSc2nnc(Cc3ccccc3)o2)c(C)c1
1.1 | i | CCCOc1ccccc1C1NC(=O)NC(C)=C1C(=O)OCCOC(C)C (stereo not drawn)
-2.5 | i | CSc1ccc(Cl)c(C(=O)NCCOc2cc(C)ccc2C(C)C)c1
0.32 | i | Cc1ccc(Cl)cc1NC(=S)N(Cc1ccco1)C(C)c1cccs1 (stereo not drawn)
-0.02 | i | O=C(CSc1nnc(-c2cccs2)n1Cc1ccccc1)N1CCc2ccccc2C1
0.06 | i | Cc1cc(Cl)c2oc(C(=O)NCC(C)(C)N3CCOCC3)c(C)c2c1
-0.45 | i | CCc1ccc(NC(=O)C(C)OC(=O)c2cccc(S(=O)(=O)N3CCc4ccccc4C3)c2)cc1 (stereo not drawn)
0.38 | i | CN(C)S(=O)(=O)c1ccc(N2CCCC2)c(C(=O)Nc2nc(-c3ccc(F)cc3)cs2)c1
-1.2 | i | COc1ccc(-c2csc(N3CCSCC3)n2)cc1
-0.46 | i | Cc1ccc2ncnc(Nc3cccc(C(=O)O)c3)c2c1
1.9 | i | CC(C)c1ccc(NC(=O)C2CC(=O)N(C3CCCC3)C2)cc1 (stereo not drawn)
1.5 | i | C/C(=N\O)C1(C)N(O)C(C)(C)C(c2ccc(F)cc2)=[N+]1[O-] (stereo not drawn)
-0.1 | i | Cc1cccc(C(=O)OCC(=O)NCCNC(=O)COC(=O)c2cccc(C)c2C)c1C
-1.3 | i | Cc1csc(N2CCN(c3cc4nc(-c5ccncc5)[nH]c4cc3Cl)CC2)n1
0.01 | i | O=C(Nc1ccccc1C(=O)OC1CCOC1=O)c1ccco1 (stereo not drawn)
1.1 | i | CC1=C(C)CC(C(=O)Nc2nc(-c3ccc(C)cc3C)c(C)s2)C(C(=O)O)C1 (stereo not drawn)
